# Compound activity: PubChem, National Center for Advancing Translational Sciences (NCATS)
# hNpr1 antagonist = Natriuretic polypeptide receptor (hNpr1) antagonism - Primary qHTS; HEK293 hNpr1 GloSensor cGMP, ANP-stimulated luminescence; Potency, µM (top dose mostly 46.3 µM), for inactives: at the highest dose activity change, negative = inhibition, most hits filed as inhibitors; 76,000 tested, 1.6% active; AID 1347048, 2019; active = well fitted inhibition curve with a large enough effect; inconclusive = small, poorly fitted or top-dose-only effect; inactive = no such curve, though single readings can be large or run the other way;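 further: nearly all actives have a fitted effect of over 60% in size; nearly all hits also lower the signal before the agonist is added; a reference antagonist and vehicle were the controls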
# Target sequence (P16066 whole entry, looked up): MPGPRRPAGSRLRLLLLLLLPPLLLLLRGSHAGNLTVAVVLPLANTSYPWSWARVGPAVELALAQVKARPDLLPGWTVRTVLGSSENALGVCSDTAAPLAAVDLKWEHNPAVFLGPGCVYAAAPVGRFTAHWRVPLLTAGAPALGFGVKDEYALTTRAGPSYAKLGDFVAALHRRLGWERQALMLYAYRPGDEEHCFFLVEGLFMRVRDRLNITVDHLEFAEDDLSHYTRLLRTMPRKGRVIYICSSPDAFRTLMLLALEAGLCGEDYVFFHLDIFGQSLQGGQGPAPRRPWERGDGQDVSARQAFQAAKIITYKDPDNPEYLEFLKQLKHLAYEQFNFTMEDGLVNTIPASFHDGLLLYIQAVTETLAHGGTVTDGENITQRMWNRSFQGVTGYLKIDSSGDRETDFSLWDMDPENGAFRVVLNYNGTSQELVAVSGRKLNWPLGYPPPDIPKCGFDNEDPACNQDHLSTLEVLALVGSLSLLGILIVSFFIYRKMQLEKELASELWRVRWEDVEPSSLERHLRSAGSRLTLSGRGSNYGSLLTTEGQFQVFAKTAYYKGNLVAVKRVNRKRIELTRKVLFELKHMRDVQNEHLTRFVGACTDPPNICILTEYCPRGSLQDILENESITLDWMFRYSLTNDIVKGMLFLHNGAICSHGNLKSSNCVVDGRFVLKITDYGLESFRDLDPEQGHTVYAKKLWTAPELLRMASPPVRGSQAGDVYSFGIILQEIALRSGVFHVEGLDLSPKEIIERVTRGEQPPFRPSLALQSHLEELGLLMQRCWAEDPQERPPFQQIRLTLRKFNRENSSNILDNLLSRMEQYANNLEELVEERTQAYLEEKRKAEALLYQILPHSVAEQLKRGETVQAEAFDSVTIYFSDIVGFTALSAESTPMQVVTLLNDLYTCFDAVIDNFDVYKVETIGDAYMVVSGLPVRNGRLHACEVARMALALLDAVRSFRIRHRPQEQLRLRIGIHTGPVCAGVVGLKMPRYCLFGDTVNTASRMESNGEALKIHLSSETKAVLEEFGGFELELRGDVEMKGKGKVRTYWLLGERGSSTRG
#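 HEK293 cells stably expressing human Npr1 and cGMP GloSensor pGS-40F, loaded 2 h with 2% GloSensor reagent, given compound 30 min at room temperature. Luminescence read before and 20 min after 0.1 nM hNppA.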
# The depositor's hits bear a star; ? = inconclusive; [ ] = remark or other dose. On the % scale 0 is the no-effect control and ±100 the full control effect; potency means the concentration at half of the fitted maximal effect. Not all compounds are listed (hit frequency here may not be typical).
SMILES,hNpr1 antagonist
COc1cc2c(cc1OC)C(CNC(=O)c1ccccc1)N(C(=O)Nc1ccccc1F)CC2 (configuration not stated),-1%
COc1ccc(CN2Cc3[nH]cnc3C[C@H]2c2nc(-c3ccncc3)no2)cc1,-26%[70.6 µM]
O=C(c1ccncc1)N1CCC(Oc2cccnc2)C1 (configuration not stated),4%
COc1ccc(NC(=O)C2CN(S(=O)(=O)C3CC3)CC23CCCCC3)c(OC)c1 (configuration not stated),-4%
O=C(CN1CCOCC1)N1CCC(N2C(=O)C3(CCCC3)C2c2ccccc2)CC1 (configuration not stated),7%
N#Cc1ccccc1CN1CCCCC1c1nc(CCOCC2CCCC2)no1 (configuration not stated),0%
Cc1ccc(C(=O)N2CCCN(c3nc4ncccc4o3)CC2)cc1,1%[70.6 µM]
CN(C)CCNC(=O)c1cnc2c(c1)N(C(=O)Cc1cn(C)c3ccccc13)CCC2,-3%[70.6 µM]
Cc1nnc2n1CCC(N(C)C(=O)CC1=CCCCC1)CC2 (configuration not stated),-6%
CCOc1ccc(NC(=O)N2CCC(N3CC4CC(C3)[C@H]3CCCC(=O)N3C4)CC2)cc1 (some centres not stated),-8%
O=C1CCN(Cc2ccncc2)CCCC(CO)CCN1 (configuration not stated),-2%
CN(C(=O)c1cnc2n[nH]c(-c3ccccc3)c2n1)c1ccccc1,16µM*
Cc1noc(C)c1CN1C[C@H]2[C@H](C1)[S+](=O)([O-])C(C)(C)C(=O)N2CCOc1ccccc1,1%
O=C(c1ccc(F)cc1)N1CCC(OC2CCN(Cc3ccccc3)CC2)CC1,-16%
Oc1ccccc1CNC1(Cc2cc(-c3ccccc3)on2)COC1,-4%[70.6 µM]
Cc1cc(C(=O)NCC2(COc3ccc(C(F)(F)F)cn3)C[C@@H](O)[C@@H](O)C2)no1 (some centres not stated),2%
Cc1ccc(-c2noc(CCCc3nc(-c4cccnc4)no3)n2)nn1,-3%
CCOC(=O)C1=C(C)N=C2SC=C(CC(=O)NCc3ccco3)N2C1c1cccc(OC)c1OC (configuration not stated),-24%
COC1C(=O)N(c2cccc(F)c2)C12CCN(C(=O)CC1CCN(C(C)=O)CC1)CC2 (configuration not stated),-3%
COCCn1ccc2c(C3=CCOCC3)nc(-c3cccc(N[S+](C)(=O)[O-])c3)cc21,-3%[70.6 µM]
N[C@H]1CN(C(=O)c2coc(CN3CCOCC3)c2)C[C@@H]1c1ccccc1,5%
O=C(Cc1ccsc1)N1CCCC(Cc2nc(C3CCOCC3)no2)C1 (configuration not stated),-4%
COCCOC1CCOC2(CCN(C(=O)COc3ccc(C)cc3)CC2)C1 (configuration not stated),2%
CCN(CC)C(=O)C[C@@H]1c2nc(NC(=O)c3ccco3)sc2C[C@@H]2[C@](C)(CO)[C@H](O)CC[C@]21C,-6%
COc1ccc(C(=O)Nc2ccc(-c3noc([C@@H]4CCCN4CCCc4ccccc4)n3)cn2)cc1,13µM*
CC(C)c1noc(-c2cccn3c(CNC(=O)c4ccccc4F)nnc23)n1,3%
O=C(NC1CCN(c2cc(-c3ccc(F)cc3)[nH]n2)CC1)c1ccc2c(c1)OCO2,0%
Cc1noc(-c2cn(C3CCN(C(=O)COc4ccccc4)CC3)nn2)n1,15%
CC1=NS(=O)(=O)N(Cc2ccccc2)C=C1C(=O)OCc1nc(Cc2ccccc2C)no1,4%
O=C(Nc1ccccc1)c1cnc2n1CCN(Cc1c[nH]c3ccccc13)CC2,-15%[70.6 µM]
CCc1noc(CN(CC)C(=O)c2cc(-c3ccccc3)nn2C)n1,2%
CCN1C(=O)C(CC(=O)NC2CCCCC2)Sc2ncccc21 (configuration not stated),3%
O=C(c1ccccn1)N1CCC(Cc2nc(C3CCOCC3)no2)CC1,-1%
COc1ccc(CCC(=O)N2CCCCCC2c2nnc(-c3ccccc3)o2)cc1 (configuration not stated),2%
O=C(CN1CC2CC(C1)[C@H]1CCCC(=O)N1C2)NCc1ccc(OC(F)(F)F)cc1 (some centres not stated),2%
CCC1(O)CCCN(C(=O)c2coc(COc3ccc4ccc(OC)cc4c3)n2)C1 (configuration not stated),?
COc1ccc(-c2ccc3nnc(CNC(=O)c4ccc(OC)nc4OC)n3n2)cc1,9%
O=C1NC2(CCN([S+](=O)([O-])c3ccccc3)C2)Oc2ccccc21 (configuration not stated),7%[70.6 µM]
CCOCCCNC(=O)N1c2ccccc2CC1c1nc(C(C)C)no1 (configuration not stated),-6%
CCCc1nc(C(=O)NC(C)c2cnn(-c3ccccc3)c2C)cs1 (configuration not stated),-10%
Cc1cc(=O)n(CC(=O)Nc2ccc(F)cc2)c(-c2ccccc2)n1,-12%
COCc1cn(C[C@H]2C[C@@H](NS(=O)(=O)c3ccccc3)[C@H](O)[C@@H]2O)nn1,1%[70.6 µM]
O=C1c2cnc(-c3cc(F)cc(F)c3)nc2OCCN1Cc1ccc(F)cc1F,-19%[70.6 µM]
Cc1ccc(CNC(=O)C2N(C(C)C)C(=O)C23CCCC3)o1 (configuration not stated),3%
O=C(NC1CCN(c2cc(-c3cccs3)[nH]n2)C1)c1cccc(OC(F)(F)F)c1 (configuration not stated),-21%

# Some of the entries so far, with values ahead of the structure:
hNpr1 antagonist | mol
2% | COc1ccc(CCC(=O)N2CCCCCC2c2nnc(-c3ccccc3)o2)cc1 (configuration not stated)
-19%[70.6 µM] | O=C1c2cnc(-c3cc(F)cc(F)c3)nc2OCCN1Cc1ccc(F)cc1F
7%[70.6 µM] | O=C1NC2(CCN([S+](=O)([O-])c3ccccc3)C2)Oc2ccccc21 (configuration not stated)
-12% | Cc1cc(=O)n(CC(=O)Nc2ccc(F)cc2)c(-c2ccccc2)n1
2% | CCc1noc(CN(CC)C(=O)c2cc(-c3ccccc3)nn2C)n1
2% | O=C(CN1CC2CC(C1)[C@H]1CCCC(=O)N1C2)NCc1ccc(OC(F)(F)F)cc1 (some centres not stated)
1%[70.6 µM] | COCc1cn(C[C@H]2C[C@@H](NS(=O)(=O)c3ccccc3)[C@H](O)[C@@H]2O)nn1

# Additional records follow:
SMILES,hNpr1 antagonist
O=C(Cn1cncn1)N1CC[C@@H]2[C@@H](CCC(=O)N2CCCCO)C1,0%
CC1CCC2(CC1)NC(=O)N(CC(=O)NCCC1=CCCCC1)C2=O (configuration not stated),0%
Cc1ccc2nc(C(=O)N3CCCC3c3cc(C(C)C)on3)cn2c1 (configuration not stated),0%
COCCN1C(=O)CCC2(C(=O)NCCc3c[nH]c4ccccc34)CCCC=C12 (configuration not stated),-2%
CCOCC(=O)N1C[C@@H]2CCCN3CCC[C@@H]([C@H]23)[C@H]1CCCC(=O)Nc1ccccc1,-1%
Cc1cnc(CC2CCN(C(=O)C3CCC3)C2)n1Cc1ccccc1 (configuration not stated),-2%
CCN1C(=O)C2CC3(CCN(S(C)(=O)=O)CC3)CN2C1=O (configuration not stated),3%
COc1ccc(CN2CCn3nc(CCC(=O)O)cc3C2)cc1O,0%
Cc1nn2c(c1-c1ccccc1[S+](C)(=O)[O-])N(CCCc1ccccc1)CCC2,18µM*
COCCOC1CCOC2(CCN(C(=O)CCc3ccc(OC)cc3)CC2)C1 (configuration not stated),19%
Cn1cnc(C(=O)N[C@H]2CCOC[C@H]2C2CCOCC2)c1,1%
O=C(NCc1c[nH]c2ncccc12)c1ccc2ccccc2n1,-23%[70.6 µM]
O=c1[nH]c(N2CCOCC2)nc2c1CCN(S(=O)(=O)c1ccc3c(c1)CCC3)CC2,2%
O=C(c1ccnnc1)N1CC(F)(F)C[C@H]1c1nc(-c2ccccc2)no1,8%
COc1ccc(CN(C(=O)c2ccco2)c2ccc(CC(=O)NC(C)C)cc2)cc1,2%
COC[C@@H]1CN(C(=O)c2cc(Cl)ccc2OC)C[C@H]1C(N)=O,3%
CCCCc1nc2cc(C(=O)N3CC(Oc4ccccc4OC)C3)ccc2o1,0%
Cc1ccc(-c2nccn3cc(C(=O)O)nc23)cc1,0%
COc1cccc(NC(=O)C2CCCN(S(C)(=O)=O)CCC(=O)NCC2)c1 (configuration not stated),-4%
COc1ccc(C(=O)NCC23CCC=C2N(CC2CC2)C(=O)CC3)cc1OC (configuration not stated),3%
O=C(O)C[C@@H]1CCN(C(=O)c2cccs2)C[C@@H]1CCN1C[C@@H]2C[C@H](C1)c1cccc(=O)n1C2,1%
COc1ccc(C)cc1NC(=O)N1CCC(Oc2ncccc2C(=O)N(C)C)C1 (configuration not stated),-4%
O=C(c1ccoc1)N1CCC(Nc2cccn3ncnc23)CC1,-10%
Cc1cc(C(F)(F)F)nn1CC(=O)N1CCCC1c1nc(CCOCC2CC2)no1 (configuration not stated),1%
C=CCNC(=O)N[C@H]1[C@H](O)[C@@H](NCCOC)[C@@H]2OC[C@H]1O2,1%[70.6 µM]
O=C(Cc1cccc(F)c1)N1CCC(c2nc(C3CCOCC3)no2)C1 (configuration not stated),0%
Cc1ccc(-c2ccc3nnc(CNC(=O)Cc4ccc(F)cc4)n3n2)cc1C,-8%
NC(=O)Cn1ccn2nc3c(c2c1=O)CCCC3,3%
CCc1ccccc1S(=O)(=O)N1CCC(n2cnnc2CCOC)CC1,3%
CCc1cc(N2CCN(C(=O)[C@H]3CCC[C@@H](O)C3)CC2)ncn1,5%

# 6 structures out of the list, sorted by count of non-hydrogen atoms, low to high:
SMILES,hNpr1 antagonist
NC(=O)Cn1ccn2nc3c(c2c1=O)CCCC3,3%
Cc1ccc(-c2nccn3cc(C(=O)O)nc23)cc1,0%
COC[C@@H]1CN(C(=O)c2cc(Cl)ccc2OC)C[C@H]1C(N)=O,3%
O=C(Cc1cccc(F)c1)N1CCC(c2nc(C3CCOCC3)no2)C1 (configuration not stated),0%
COc1cccc(NC(=O)C2CCCN(S(C)(=O)=O)CCC(=O)NCC2)c1 (configuration not stated),-4%
CCCCc1nc2cc(C(=O)N3CC(Oc4ccccc4OC)C3)ccc2o1,0%

# (list continues)
SMILES,hNpr1 antagonist
COc1ccccc1NC(=O)NC[C@H]1O[C@H](Cc2cc(-c3cccc(O)c3)on2)CC[C@@H]1O,-5%
O=C1[C@H]2CN(Cc3cccc(OC(F)(F)F)c3)C[C@H]2C(=O)N1Cc1ccc2c(c1)OCO2,?
COc1ccc(C(=O)NCCC2CCN(C(=O)Nc3ccc(F)cc3)CC2)cc1OC,0%
CCn1ccnc1CN(C)C(=O)c1ccc(OC2CCN(S(=O)(=O)N(C)C)CC2)cc1,5%
N#Cc1cccc(C(=O)N2C[C@@H](CO)[C@H](c3ccccn3)C2)c1,0%
CCN1CCN(C(=O)c2ccc(-c3nnc4ccc(NC(=O)C5CC5)cn34)cc2)CC1,2%
COC1C(=O)N(c2cccc(F)c2)C12CCN(C(=O)C(C)C)CC2 (configuration not stated),2%
COc1ccc(NC(=O)[C@@H]2C[C@H](c3ccc(F)cc3)N(Cc3csc(C)n3)C2)cn1,-3%[70.6 µM]
Cc1oc2c(c1C(=O)NCCN1CCCC1)CN(Cc1ccc(F)cc1)CC2,-21%
COc1ccc(-c2cc3c(=O)n(CCNC(=O)c4c(F)cccc4F)ccn3n2)cc1,-21%
CN(Cc1cc(C[C@@H]2C[C@H](NC(=O)COc3ccccc3)C2(C)C)no1)c1ccccc1,?
COc1ccc(-c2nc(-c3nnn4c3COC(c3ccc(C)cc3)C4)no2)cc1 (configuration not stated),2%
C=CCOc1cccc(-c2nc(C(=O)Nc3ccccc3)cs2)c1,1%
CCOc1ccc(NC(=O)NCCc2noc(C)n2)cc1,3%
COc1ccc(CN2C[C@@H]3C(=O)N(Cc4ccc5c(c4)OCO5)C(=O)[C@@H]3C2)c(OC)c1,?
CN1CCN(C[C@@H]2CN(C(=O)CCCc3ccccc3)C[C@@H]2CO)CC1,11%
Cc1ccc2nc3n(c2c1)[C@@H](CNS(=O)(=O)c1ccccc1)COC3,?
CN(C)C[C@@H]1CN(c2ncccn2)C[C@H]1NC(=O)Cc1ccccc1F,-1%
COC(=O)c1ccc2nc(CO[C@H]3CN(Cc4ccc(OC)nc4)C[C@H]3F)[nH]c2c1,0%[70.6 µM]
CCc1ccc(S(=O)(=O)N2CCC(n3cnnc3COC)CC2)cc1,-3%
CC1CCCCN1C(=O)C1COC2(CCN(C(=O)c3ccco3)CC2)N1C(=O)c1ccccc1 (configuration not stated),3%
COc1ccc(C(=O)N[C@H]2CO[C@H]3[C@@H]2OC[C@@H]3n2cc(-c3ccccc3)nn2)cc1,-29%[70.6 µM]
COc1cccc(CNC(=O)C2Cn3cccc3C(=O)N2)c1OC (configuration not stated),3%
CNC(=O)[C@@H]1C[C@H](N)CN1C(=O)c1ccc(OC)c(OC)c1OC,1%
COc1cc(=O)n2c(c1C(=O)Nc1ccc(C)cc1F)CCCC2,4%
O=C(NCCc1ccccn1)c1ccc(Cn2ccn3nc4c(c3c2=O)CCCC4)cc1,-4%
O=C1CN(C(=O)c2ccc(-n3cccn3)cc2)CC(OCc2ccccc2)CN1Cc1cccnc1 (configuration not stated),-3%
COCc1ccc(C(=O)NCc2cc3n(n2)CCCN(CC(C)C)C3)o1,2%
Cc1nc(-c2ccc(F)cc2)n(Cc2cccc(F)c2)c(=O)c1CCO,-1%
CCn1cc(S(=O)(=O)N2C[C@@H](C(=O)NC)[C@H](c3nc(C)no3)C2)cn1,-3%
Cc1ccc(S(=O)(=O)N[C@H]2CC(C)(C)[C@@H]3C[C@@](C)(O)CC[C@]23CCC(=O)NCCc2c[nH]c3ccccc23)cc1,4%
CC1Cc2cc(-c3ccnc4ncnn34)ccc2O1 (configuration not stated),3%
COc1cncc(Nc2cnc3ccc(-c4ccc(F)cc4)nn23)c1,-24%[70.6 µM]
Cc1nc(CNC(=O)c2ccc3oc(-c4cccc(F)c4)nc3c2)cs1,2%
CN(C)S(=O)(=O)N1CC[C@@H]2C(=O)NCCCCCCN(Cc3ccncc3)[C@@H]2C1,-1%
